TRPML1 inh – qHTS for Inhibitors of the Human Mucolipin Transient Receptor Potential 1 (TRPML1) | TRPML1-inducible cells, Ca2+ dye fluorescence, FDSS; active compounds read low; inhibition of EC80 agonist-evoked calcium signal | activity change, negative = inhibition, % (no concentration beside the values) | hit rate 0.02% among 390,000; in the data active means activity change below about -50%; inconclusive means about -30% to -50%; inactive means above about -30%;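 further: stimulus is agonist 54-4 at its EC80 concentration; on the % scale 0 is the no-effect control and ±100 the full control effect; compound concentration not given in the record; the text of the record puts the active cut at -80%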
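Calcium fluorescence in TRPML1-DL cells induced overnight with Tet: a 110 s read after compound pin addition, then a 110 s antagonist read after challenge with 54-4 at 4 uM final (EC80).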
CtBP-E1A blk – qHTS Assay for Inhibitors of the CtBP/E1A Interaction. CtBP / adenovirus E1A interaction (AlphaScreen). AlphaScreen GST-E1A/His-CtBP binding, 1536-well; active compounds read low; control for the full effect not named in the record. activity change, % (concentration not given with the values). hit rate 0.49% among 340,000; in the data active means activity change below about -65%; inconclusive means about -30% to -65%; inactive means above about -30%; further: on the % scale 0 is the no-effect control and ±100 the full control effect
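Steps: dispense buffer (Tris pH 8.0, NaCl 300 mM, TCEP 1 mM, BSA, Tween 20); add 5X protein mix (GST-E1A, His-CtBP, 125 nM each); pin 23 nL compound; 2 h at 37 °C, dark; add 5X beads (50 ug/mL); 1 h; read.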
TRPV1 PAM – HTS Assay for Compounds that Act as Potentiators of the Vanilloid Receptor 1; hit rate 0.02% among 320,000; AID 540277, 2011; TRPV1-expressing cells, Fluo-8 calcium influx, capsaicin EC20 potentiation; host cell line not named in the record; control for the full effect not named in the record; potentiation, % at 8.33 µM; Transient receptor potential cation channel subfamily V member 1 (Homo sapiens), Q8NER1; active means potentiation above 80%; inconclusive means 30% to 80%; inactive means below 30%; further: 0% is about no effect
Target sequence (Q8NER1 whole entry, looked up): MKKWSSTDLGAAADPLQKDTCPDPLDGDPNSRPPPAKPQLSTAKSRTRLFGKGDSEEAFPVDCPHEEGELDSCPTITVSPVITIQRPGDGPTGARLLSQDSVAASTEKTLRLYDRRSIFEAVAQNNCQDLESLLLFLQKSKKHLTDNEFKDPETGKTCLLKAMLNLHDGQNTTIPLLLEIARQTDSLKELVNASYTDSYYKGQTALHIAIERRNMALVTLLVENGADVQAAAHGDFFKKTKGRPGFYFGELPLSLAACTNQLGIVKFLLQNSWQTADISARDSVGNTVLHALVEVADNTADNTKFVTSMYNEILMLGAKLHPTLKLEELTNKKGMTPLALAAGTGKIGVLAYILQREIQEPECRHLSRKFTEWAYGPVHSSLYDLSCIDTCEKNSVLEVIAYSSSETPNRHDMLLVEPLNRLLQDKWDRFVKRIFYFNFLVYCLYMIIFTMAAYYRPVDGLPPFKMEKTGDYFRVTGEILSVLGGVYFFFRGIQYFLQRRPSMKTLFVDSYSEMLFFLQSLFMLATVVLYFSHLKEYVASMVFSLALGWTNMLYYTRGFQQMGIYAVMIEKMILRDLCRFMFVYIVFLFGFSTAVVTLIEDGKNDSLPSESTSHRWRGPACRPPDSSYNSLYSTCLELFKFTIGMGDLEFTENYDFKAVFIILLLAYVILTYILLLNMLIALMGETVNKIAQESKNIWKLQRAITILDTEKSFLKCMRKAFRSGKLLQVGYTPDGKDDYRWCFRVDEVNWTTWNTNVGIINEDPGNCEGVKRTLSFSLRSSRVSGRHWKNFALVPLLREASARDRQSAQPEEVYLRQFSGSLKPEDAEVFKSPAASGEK
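TRPV1-expressing cells were cultured overnight at 35.5C and loaded with Fluo-8 calcium dye for 40 to 90 min at room temperature. After a 10 s baseline, compound was added and calcium influx was read kinetically for 3 min (ex 480/em 520 nm).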
TRPML1 agonist – qHTS for Agonists of the Human Mucolipin Transient Receptor Potential 1 (TRPML1); Mucolipin-1 (Homo sapiens), Q9GZU1; TRPML1-expressing cells, Ca2+ dye fluorescence, FDSS; host cell line not named in the record; reference of the full effect not given here; activation, % (test concentration not listed); hit rate 0.12% among 410,000; AID 624414, 2012; in the data active = activation above about 50%; inconclusive = about 30% to 50%; inactive = below about 30%; further: 0% is about no effect; the text of the record puts the active cut at 80%
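TRPML1-DL cells, Tet-induced overnight (~16 h, 37 degrees C), loaded 45-90 min at room temperature with Ca8 no-wash calcium dye plus quencher. FDSS fluorescence: 10 s baseline, compound pin-transfer, 110 s agonist read, then EC80 54-4 (4uM final) and 110 s antagonist read.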
D2 potentiator – Beta-Arrestin HTS for Positive Allosteric Modulators of the Human D2 Dopamine Receptor: Potentiators | D(2) dopamine receptor (Homo sapiens), P14416 | AID 624464, 2012 | DiscoveRx D2 beta-arrestin cells, luminescence, 90 min; 100% = 57 uM dopamine signal | hit rate 0.23% among 360,000 | potentiation, % (test concentration not listed); active = potentiation of 50% or more; inconclusive = 30% to 50%; inactive = 30% or less;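 further: compound concentration not given in the record; tested on top of an EC20 dose of dopamine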
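D2 cells co-treated with compound plus 50 nM dopamine (EC20) for 90 min at 37 deg C to detect potentiation. Beta-arrestin recruitment was read as enzyme-fragment luminescence after 1 h at ambient temperature. Full response was set by 57 uM dopamine.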
Six1-Eya2 blk – qHTS Assay for Inhibitors of the Six1/Eya2 Interaction; Homeobox protein SIX1 (Homo sapiens) + Protein phosphatase EYA2 (Homo sapiens), …; AlphaScreen GST-Six1/His-Eya2 binding, biochemical; active compounds read low; control for the full effect not named in the record; activity change, % (concentration not given with the values); hit rate 0.56% among 360,000; AID 651725, 2012; in the data active = activity change below about -65%; inconclusive = about -30% to -65%; inactive = above about -30%; further: on the % scale 0 is the no-effect control and ±100 the full control effect
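Six1/Eya2 binding was read as AlphaScreen signal after compounds were pinned into GST-Six1 plus His-tagged Eya2 (5X stock 250/500 nM) in pH 8.0 Tris/NaCl/TCEP buffer, beads added, then incubated 1 h, 37 C, dark.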
* hit, by the source's call; ? = inconclusive; · = no result given.

SMILES	TRPML1 inh	CtBP-E1A blk	TRPV1 PAM	TRPML1 agonist	D2 potentiator	Six1-Eya2 blk
NC(=O)CC(NC(=O)Cc1cccc2ccccc12)c1ccc(NCCOc2ccccc2)c([N+](=O)[O-])c1 (stereo unspecified)	-10	-26	-7	0.4	-13	-13
CCCC(=O)NCCc1cc2c(C)ccc(C)c2[nH]c1=O	31	10	15	-0.4	-7	3
CCCCC1=NN2CCS(=O)(=O)N=C2S1	-19	3	19	0.1	-1	-1
Cc1nn(CC(=O)NCCCc2ccccc2)c(=O)c2cc3occc3n12	4	·	-34	-0.1	-7	0
COc1ccc(N2CCN(C3CCCN(Cc4cccc(C(C)=O)c4)C3)CC2)cc1 (stereo unspecified)	29	-12	?	0.6	-5	-13
COC(=O)c1ccc(CSCC(=O)Nc2cc(OC)cc(OC)c2)o1	-1	0	15	-0.3	-26	14
COc1cccc(N(C(=O)c2cnccn2)C(C(=O)NC2CCCCC2)c2ccc(Cl)cc2)c1 (stereo unspecified)	-12	-17	-18	3.1	-30	-3
CCN(CC)Cc1c(O)ccc2occ(C(=O)c3ccccc3)c12	11	-2	7	0.1	0	0
COC(=O)C(C(=O)OC)C(CC(=O)c1ccc(C)cc1)c1cc(OC)c(OC)c(OC)c1 (stereo unspecified)	·	10	-4	·	2	1
Cc1cccc(-n2c(-c3ccc(Br)o3)n[nH]c2=S)c1	-1	0	·	1.2	-4	0
Cc1nnc(SCCn2c(N3CCC(Cc4ccccc4)CC3)nc3c2c(=O)[nH]c(=O)n3C)s1	0	-1	-3	1.2	1	-9
CCOC(=O)C1CCCN(C(=O)c2ccc(C(F)(F)F)nc2C)CC1 (stereo unspecified)	-10	12	·	0.9	-5	4
CCN(CC)CCNC(=O)c1ccc(NC(=O)c2ccc3c(c2)CCC3)cc1	0	·	-29	1.1	-18	1
COc1ccc(-c2noc(CN(C)C(=O)c3ccoc3C)n2)cc1OC	-13	-11	-4	0.6	-1	-9
CC(OC(=O)CCSc1ccccc1)C(=O)Nc1ccc(S(N)(=O)=O)cc1 (stereo unspecified)	25	0	-10	1.2	1	-1
Cc1cccc2c1-c1sc(C(=O)Nc3ccccc3N3CCN(C)CC3)cc1CO2	14	2	24	0.7	-10	-8
CCN(C(=O)CSc1nnnn1-c1ccccc1)C1CCS(=O)(=O)C1 (stereo unspecified)	3	0	2	-0.7	-1	4
COc1ccc(-c2nc(C#N)c(NC(C)c3ccccc3)o2)cc1OC (stereo unspecified)	-1	-8	-11	-0.1	-10	-23
Cc1ccc(Nc2nc3ccc(Cl)cc3n3cnnc23)cc1F	25	-10	-2	-1.4	1	10
CCC(Sc1ncnc2c1c(-c1ccccc1)cn2-c1ccc(OC)cc1)C(=O)OC (stereo unspecified)	0	1	5	0.4	-5	-1
CC(OC(=O)c1ccco1)C(=O)NCc1ccc2c(c1)OCO2 (stereo unspecified)	-9	-10	3	0.9	-8	-4
O=C(N/N=C/c1ccc2c(c1)OCO2)c1cccs1	-3	-7	-13	0.1	-7	1
CN(C(=O)c1cccc(Cl)c1)C1CCCN(Cc2ccccc2F)C1 (stereo unspecified)	31	5	5	1.5	-2	-3
N/C(=N\OC(=O)C(c1ccccc1)c1ccccc1)c1ccncc1	-3	-15	-5	1.2	8	19
COc1cc(/C=C/c2nc3ccccc3c(=O)[nH]2)cc(Cl)c1O	26	-3	19	3.0	-11	-1
O=Cc1c(NCc2ccc(F)cc2)c2ccccc2[nH]c1=O	-8	-2	-11	-0.2	-8	3
O=C(NCc1ccccn1)Nc1ccc(Cl)cc1	7	3	·	1.2	-3	6
Cc1onc(-c2c(Cl)cccc2Cl)c1C(N)=S	1	0	0	0.4	-6	-5
CC(C)N(C)c1ncnc2c1ncn2[C@H]1CN(C2CCCC2)C[C@@H](CO)O1	·	-2	·	-0.5	-3	2
O=C(NCc1ccc(Cl)cc1)c1cc(=O)nc2sc(-c3ccccc3)nn12	-4	-3	17	0.9	2	1
CCN1C(=O)N(C)C2(c3ccccc3)N(C)C(=O)N(C)C12c1ccccc1 (stereo unspecified)	-13	4	-5	-0.3	-7	1
Cc1ccc(CNC(=O)C2CC(c3ccccc3C(F)(F)F)=NO2)o1 (stereo unspecified)	6	·	·	1.0	-6	4
COc1ccccc1NC(=O)COc1ccc(Br)cc1CO	9	-1	-6	0.0	-15	2
CCCCn1c(N)c(N(CCC(C)C)C(=O)c2ccccc2C)c(=O)[nH]c1=O	14	7	-2	2.9	1	16
COc1cccc(OC)c1CNC(=O)CCSCc1ccccc1F	5	1	-16	-1.0	-12	-1
O=C(Nc1ccc(OC(F)(F)F)cc1)c1ccc(-n2cncn2)nc1	-15	0	-10	1.3	-3	28

4 entries out of the list above, ordered by the number in TRPML1 inh, descending.
compound	TRPML1 inh
CCCCn1c(N)c(N(CCC(C)C)C(=O)c2ccccc2C)c(=O)[nH]c1=O	14
COc1ccccc1NC(=O)COc1ccc(Br)cc1CO	9
O=C(NCc1ccccn1)Nc1ccc(Cl)cc1	7
O=C(Nc1ccc(OC(F)(F)F)cc1)c1ccc(-n2cncn2)nc1	-15

(cont.)
SMILES	TRPML1 inh	CtBP-E1A blk	TRPV1 PAM	TRPML1 agonist	D2 potentiator	Six1-Eya2 blk
Nc1nonc1C(=O)N/N=C/c1ccc(-c2ccc(Cl)c(C(=O)O)c2)o1	2	-5	-19	-0.6	-8	-17
CC(C)NC(=S)N1CCn2c(nc3ccccc32)C1	8	0	-3	-0.4	4	4
O=C1OCCN/C1=C\C(=O)c1ccc(Cl)cc1	-14	7	-5	0.0	-1	6
CCOc1ccc(-n2c(=S)sc3c(=O)[nH]c(SCC(=O)NCc4ccco4)nc32)cc1	12	-1	8	0.0	-7	-1
O=C(Nc1ccc2oc(-c3cccnc3)nc2c1)c1cccnc1	-15	-6	6	-0.7	21	-6
CC(=O)c1ccccc1NC(=O)COC(=O)/C=C/c1ccc(OC(F)F)cc1	-1	-8	3	0.0	-21	1
O=C(O)c1cc(-c2ccc(Cl)c(Cl)c2)n(-c2ccc(F)cc2)n1	1	·	10	1.8	-6	-2
CCN(CC)C(=O)CSc1nsc(SCC(=O)N(CC)CC)c1C#N	5	5	-1	0.6	9	4
Cn1c(-c2ccc(Cl)cc2)ccc(C#N)c1=O	29	7	8	1.1	-10	3
COc1ccc(-n2c(CN3CCN(Cc4ccccc4)CC3)nc3ccc([N+](=O)[O-])cc3c2=O)c(OC)c1	·	-14	?	·	-19	-4
CC(NCc1ccccc1O)C12CC3CC(CC(C3)C1)C2 (stereo unspecified)	20	-8	-12	1.4	-23	-13
COc1cccc(OC)c1C(=O)NC(=S)Nc1ccc2oc(=O)ccc2c1	7	3	-4	-0.1	-7	-3
O=C(CN(C(=O)CNC(=O)c1cccs1)c1ccccc1)NC1CCCCC1	-5	2	17	-0.1	-2	-3
COc1ccc(N2C(=O)CC(N(C)CCc3ccc(OC)c(OC)c3)C2=O)cc1 (stereo unspecified)	-2	-11	-4	1.0	-3	2
CC1CN(C(=O)c2ccc([N+](=O)[O-])s2)CC(C)O1 (stereo unspecified)	34	·	·	-0.9	1	3
Cc1ccc(SCCNC(=O)/C=C/c2cccc([N+](=O)[O-])c2)cc1	-15	1	-30	0.4	-10	-10
Cc1cc(C)nc(N2CCCC(CCC(=O)NCc3ccc(F)c(F)c3)C2)n1 (stereo unspecified)	19	9	-22	-0.2	1	0
CCN(CC)S(=O)(=O)c1ccc2oc(C(=O)NCCCN3CCOCC3)c(C)c2c1	-8	10	-11	-0.3	-22	0
C=CCSC1=N/C(=C\c2sccc2C)C(=O)S1	31	-7	18	0.9	-7	-11
CC(=O)OCC(OC(C)=O)C(OC(C)=O)C(OC(C)=O)C(=O)Nc1ccc(C)cc1 (stereo unspecified)	13	-10	6	-0.1	-14	-1
CCN(CC)CCCNC(=O)c1c(O)c2cc(F)cc3c2n(c1=O)C(C)CC3 (stereo unspecified)	7	·	-8	-0.8	-6	-7
COc1ccc(S(=O)(=O)N2CCC(C(=O)NCCC3=CCCCC3)CC2)cc1C	-8	6	-7	0.1	2	-1
Cc1cccc(OCc2nnc(SCC(=O)N(C)C3CCCCC3)o2)c1	9	7	17	2.6	0	9
CCCNc1nc2c(c(=O)n(C)c(=O)n2C)n1Cc1cccc(C)c1	-15	4	5	0.7	11	0
COc1ccc(/C=N/NC(=O)Cc2ccc(Cl)cc2)cc1OC	7	-1	-3	1.2	-17	-11
O=C(Nc1ccccn1)c1ccc2c(c1)OCO2	6	7	-12	-0.6	-6	-2
COc1ccc(OC)c(NC(=O)C(C#N)=Cc2ccco2)c1	-13	-4	·	0.4	2	-4
COc1ccc(N2C(=O)C3CCCN3C2c2ccccc2)cc1 (stereo unspecified)	3	3	·	0.0	-2	4
O=C(CCCCn1c(=O)c2ccccc2n(Cc2ccccc2)c1=O)NC1CCN(Cc2ccccc2)CC1	·	3	1	·	-12	-2
CN1CCN(C(CNS(=O)(=O)c2ccc(Cl)cc2)c2cccnc2)CC1 (stereo unspecified)	-1	-7	6	0.5	-10	4
C=CCOc1ccc(/C(O)=C2/C(=O)C(=O)N(CCN3CCOCC3)C2c2ccc(C)cc2)cc1 (stereo unspecified)	-18	3	-8	1.0	-7	1
COc1ccc2cc(C(=O)NCC(=O)O)sc(=O)c2c1OC	-3	0	21	0.9	19	-12
Cc1cnn(C(=O)Cn2nc(C(F)F)c(Br)c2C)c1	-21	5	7	-0.4	-3	0
CCCC(C)C(=O)Nc1cccc(NC(C)=O)c1 (stereo unspecified)	31	-1	-7	-0.5	-15	-1
COc1cccc2c(=O)n(CC(=O)NC3CCCCC3)ccc12	10	3	3	-0.6	-3	-5
COc1ccc(N2CCN(C(CNC(=O)c3cccc(Cl)c3)c3cccnc3)CC2)cc1 (stereo unspecified)	-1	-3	16	1.3	-15	1
COc1cccc(-c2nc(CCl)cs2)c1	2	-16	-2	-0.6	-12	17
COc1ccc(C2CCCN2C(=S)Nc2ccc(C)c(C)c2)cc1OC (stereo unspecified)	-1	-11	-5	-0.4	9	-11

Whole records from above:
Listed for `COc1ccc(N2CCN(C(CNC(=O)c3cccc(Cl)c3)c3cccnc3)CC2)cc1` (stereo unspecified) → TRPML1 inh = -1; CtBP-E1A blk = -3; TRPV1 PAM = 16; TRPML1 agonist = 1.3; D2 potentiator = -15; Six1-Eya2 blk = 1
Listed for `COc1cccc(-c2nc(CCl)cs2)c1` → TRPML1 inh = 2; CtBP-E1A blk = -16; TRPV1 PAM = -2; TRPML1 agonist = -0.6; D2 potentiator = -12; Six1-Eya2 blk = 17

High-throughput results as filed in PubChem BioAssay.
